DUX4 inh: DUX4-mediated transcription inhibition; 293T-iDUX4 ZSCAN4-Gaussia luciferase reporter, 24 h; hits give low values; activity change, negative = inhibition, % (concentration not given with the values); 37,000 tested, 0.8% active; AID 1224904;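 active means -10% or lower and over 25 points stronger than a control reporter; inconclusive means -10% or lower with a smaller gap; inactive means above -10%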;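 further: 0% = median of neutral control wells and -100% = median of positive control wells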
DUX4 inh difference: further read-out of DUX4 inh, marked with its call; Gaussia minus Italica difference, %; measured here: selective DUX4 reporter inhibition;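 worked out from the two reporters; negative = selective loss of the DUX4 reporter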
DUX4 inh control: also measured in DUX4 inh; calls as there; activity change, negative = inhibition, %; measured here: Italica tet-on control reporter;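 0 = neutral control and -100 = positive control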
Starred values were filed as active, the others as inactive; ? = inconclusive; . = no result given; & = joins results of further samples.

structure	DUX4 inh	DUX4 inh control	DUX4 inh difference
C[C@@H]1CN([C@@H](C)CO)C(=O)CCCn2cc(nn2)CO[C@H]1CN(C)S(=O)(=O)c1cccc(F)c1	4	2.3	2
O=S(=O)(NC[C@H]1N[C@@H](CO)[C@H]1c1ccc(C2=CCCC2)cc1)c1ccccc1	3	1.2	2
C[C@@H](O)C#Cc1ccc([C@@H]2[C@@H](CO)N3CCCCN(S(=O)(=O)Cc4ccccc4)C[C@H]23)cc1	25	4.7	21
N#C[C@@H]1[C@@H](c2ccccc2-c2ccccc2F)[C@@H](CO)N1C(=O)c1ccccn1	14	6.0	8
COCC(=O)N1CCCCN2[C@H](CO)[C@@H](c3ccc(C#Cc4cccnc4)cc3)[C@H]2C1	10	2.8	7
O=C(c1ccc2c(c1)OCO2)N1C[C@H]2[C@@H](c3ccccc31)[C@@H](CO)N2Cc1cccnc1	4	3.5	0
C/C=C/c1ccc([C@@H]2[C@@H](C#N)N(C(=O)NC3CCCCC3)[C@@H]2CO)cc1	-3	3.4	-7
COCC#Cc1ccc2c(c1)O[C@@H](CN(C)C(=O)c1ccccc1)[C@H](C)CN([C@@H](C)CO)S2(=O)=O	-3	-3.3	0
Cc1ccc(S(=O)(=O)NCC[C@H]2CC[C@H](NC(=O)CCN3CCCCC3)[C@H](CO)O2)cc1	-4	-0.1	-4
C[C@@H]1CN([C@@H](C)CO)C(=O)c2cc(-c3ccc(C#N)cc3)cnc2O[C@H]1CN(C)C(=O)Nc1ccccc1	4	3.5	0
COc1ccccc1NC(=O)N[C@H]1C=C[C@@H](CC(=O)N[C@H](C)c2ccccc2)O[C@H]1CO	6	-2.5	8
CCCN1[C@@H]2c3ccc(-c4cccnc4)c(=O)n3C[C@@H]2[C@@H](CO)[C@@H]1C(=O)OC	6	-0.8	7
CO[C@@H]1CN(C)C(=O)c2ccc(NC(=O)c3ccno3)cc2OC[C@H](C)N(S(C)(=O)=O)C[C@H]1C	-7	-3.3	-3
O=C(Nc1ccc(C(F)(F)F)cc1)N1[C@@H]2CNC[C@H]1C2c1ccc(-c2ccccc2F)cc1 (some centres not stated)	10&14	1.9&-1.6	8&15
Cc1ccccc1S(=O)(=O)N1CC[C@@H]2[C@@H](CO)Nc3ccc(C#Cc4ccccc4)cc3[C@@H]21	1	5.6	-4
CCCNC(=O)N1[C@H](CO)[C@@H](c2ccccc2C2=CCCC2)[C@@H]1C#N	6	-3.7	10
O=C(C[C@H]1C[C@@H]2c3cc(NC(=O)Nc4ccccc4)ccc3O[C@@H]2[C@H](CO)O1)NC1CCCC1	7	-2.8	10
O=C(O)[C@H]1[C@H](CO)[C@H]2Cn3c(ccc(-c4ccccc4F)c3=O)[C@H]2N1C(=O)c1cnccn1	8	-2.2	10
CN(C)Cc1cn(CC[C@H]2CC[C@@H](NS(=O)(=O)c3ccc(-c4ccccc4)cc3)[C@@H](CO)O2)nn1	-3	-14	11
O=C(O)C[C@H]1C[C@H]2c3cc(NC(=O)C4CCC4)ccc3O[C@H]2[C@H](CO)O1	10	6.1	4
CO[C@@H]1CC[C@@H]2CCOc3c(C#N)cccc3C(=O)N(C)C[C@H](c3ccccc3)CC(=O)N(C)C[C@@H]1O2	-3	-12	9
O=C(c1ccccn1)N1C[C@H]2[C@@H](c3ccccc31)[C@@H](CO)N2CC1CCCC1	1	2.4	-2
O=C(NCC[C@@H]1CC[C@@H](NC(=O)c2ccccc2F)[C@H](CO)O1)c1cnccn1	2	6.6	-5
C[C@@H]1CCCCO[C@H](CN(C)C(=O)NC2CCCCC2)[C@H](C)CN([C@@H](C)CO)C(=O)c2cc(NC(=O)Cc3ccccc3)ccc2O1	4	-2.9	7
CNC(=O)C[C@H]1CC[C@H]2[C@H](COc3ccc(NC(=O)c4ccccc4OC)cc3C(=O)N2C)O1	0	-2.0	2
Cc1noc(C)c1S(=O)(=O)Nc1ccc2c(c1)C(=O)N([C@@H](C)CO)C[C@H](C)[C@@H](CN(C)C(=O)Nc1cccc3ccccc13)OCCCC[C@H](C)O2	2	-1.1	3
CCNC(=O)C[C@H]1CC[C@H]2[C@@H](COc3ccc(NC(=O)c4ccc(F)c(F)c4)cc3C(=O)N2C)O1	-2	0.9	-3
CC(=O)N1CC2(C1)[C@H](c1ccc(-c3ccccc3C)cc1)[C@H](CO)N2C(C)=O	0	-1.7	2
C[C@H](CO)N1C[C@H](C)[C@H](CN(C)C(=O)NC2CCCC2)Oc2cc(-c3cncnc3)ccc2S1(=O)=O	-5	-0.1	-5
CO[C@@H]1CN(C)C(=O)c2ccc(NC(C)=O)cc2OC[C@H](C)N(C(=O)Cc2cccnc2)C[C@@H]1C	2	-1.0	3
COc1ccc2c3c(n(C)c2c1)[C@@H](CO)N(C)CC31CCN(C(=O)c2ccc3c(c2)OCO3)CC1	3	13	-11
COc1ccc(-c2ccc3c(c2)[C@@H]2[C@@H](CCN2C(=O)Nc2ccccc2OC)[C@@H](CO)N3C)cc1	?	.	.
CC(C)CC#Cc1ccc([C@@H]2[C@@H](CO)N3C(=O)CN(C(=O)c4cccc(F)c4)C[C@H]23)cc1	0	-7.3	7
CCCNC(=O)N1C[C@@H](O)COC[C@H]2O[C@@H](CC(=O)N3CCCCC3)CC[C@@H]21	11	1.7	10
COc1ccc2c3c([nH]c2c1)[C@@H](CO)N(Cc1cc(F)ccc1F)CC31CCN(C(C)=O)CC1	?	.	.
CCS(=O)(=O)NCC[C@@H]1CC[C@@H](NC(=O)Nc2cc(Cl)cc(Cl)c2)[C@H](CO)O1	-2	7.2	-9
CN(C)CC#Cc1ccc([C@H]2[C@@H](CO)N3CCCCN(C(=O)Nc4ccc(F)cc4)C[C@H]23)cc1	3	1.9	2
CCS(=O)(=O)Nc1ccc2c(c1)C(=O)N(C)[C@H]1CC[C@@H](CC(=O)N[C@@H]3CCN(Cc4ccccc4)C3)O[C@@H]1CO2	6	7.5	-1
COc1ccc(S(=O)(=O)N(C)C[C@H]2OCCCC[C@H](C)Oc3ccc(NC(=O)Nc4cccc5ccccc45)cc3C(=O)N([C@H](C)CO)C[C@@H]2C)cc1	-3	4.7	-8
CN(C)CCCNC(=O)[C@@H]1[C@@H](CO)[C@@H]2Cn3c(ccc(C4=CCCCC4)c3=O)[C@H]1N2Cc1cocn1	6	-2.6	8
COc1ccc2c3c(n(C)c2c1)[C@H](CO)N(C(C)=O)CC31CCN(C(=O)c2cnccn2)CC1	14	8.9	6
C/C=C/c1ccc(C2[C@H]3CNC[C@@H]2N3C(=O)Nc2ccccc2Cl)cc1 (some centres not stated)	12&17	9.9&-2.3	2&19
CCCNC(=O)N1[C@H](C#N)[C@@H](c2ccccc2-c2ccc(C)cc2)[C@@H]1CO	?	.	.
CC=Cc1ccc2n(c1=O)C[C@H]1[C@H](CO)[C@@H](C(=O)Nc3ccc(-c4ccccc4)cc3)[C@@H]2N1C(C)=O (mixture of isomers)	-8	-11	4
COc1cccc(-c2ccc([C@H]3[C@@H](CO)N4C(=O)CN(C(=O)C5CCOCC5)C[C@@H]34)cc2)c1	6	12	-6
CC(C)(C)[S@](=O)N1Cc2cc(C(=O)N3CCOCC3)nc(-c3cccc(-c4ccccc4F)c3)c2[C@@H]1CCO	2	2.0	0
O=C(C1CCOCC1)N1CC2(C1)[C@@H](c1ccccc1)[C@@H](CO)N2CCC(F)(F)F	0	6.0	-6
CCC(=O)N1CCCCN2[C@@H](CO)[C@H](c3ccc(/C=C/c4ccccc4)cc3)[C@@H]2C1	-16*	9.0*	-25*
COc1ccc(-c2cnc3c(c2)C(=O)N([C@H](C)CO)C[C@@H](C)[C@@H](CN(C)C(=O)C2CCC2)O3)cc1	-5	0.6	-5
Cc1noc(C)c1S(=O)(=O)N(C)C[C@@H]1OCc2ccccc2-c2ccccc2C(=O)N([C@@H](C)CO)C[C@@H]1C	7	4.5	2
C[C@H](C(=O)N(C)C[C@@H]1OCc2ccccc2-c2ccccc2C(=O)N([C@H](C)CO)C[C@H]1C)c1ccccc1	0	-0.8	1
C[C@@H]1CN([C@@H](C)CO)C(=O)c2cc(NS(=O)(=O)c3cn(C)cn3)ccc2O[C@@H](C)CCCCO[C@H]1CN(C)C(=O)c1ccncc1	-2	-0.2	-2
O=C(C1CCCC1)N1CC2(C1)[C@@H](c1ccccc1)[C@@H](CO)N2CC1CC1	3	8.6	-6
C/C=C/c1ccc([C@@H]2[C@@H](CO)N(C(C)=O)[C@H]2CNC(=O)c2ccccc2)cc1	3	1.0	2
CC(C)(O)C#Cc1ccc([C@@H]2[C@H](CO)N3CCCCN(C(=O)c4ccc(F)cc4)C[C@@H]23)cc1	11	16	-5
COc1cccc(S(=O)(=O)N[C@H]2CC[C@@H](CC(=O)NC3Cc4ccccc4C3)O[C@H]2CO)c1	-2	-1.2	-1
O=C(Nc1ccccc1)[C@@H]1[C@@H](CO)[C@@H]2Cn3c(cccc3=O)[C@@H]2N1C(=O)C1CC1	2	-0.1	2
C[C@H](CO)N1C[C@H](C)[C@H](CN(C)C(=O)c2ccccc2)OCCCC[C@H](C)Oc2ccc(NS(=O)(=O)c3ccc(F)cc3)cc2C1=O	1	5.7	-5
C[C@H](CO)N1C[C@H](C)[C@H](CN(C)Cc2ccc(C(=O)O)cc2)OCc2ccccc2-c2c(n(C)c3ccccc23)C1=O	8	1.4	6
CCCNC(=O)N1C[C@@H](C)[C@@H](OC)CN(C)C(=O)c2ccc(NC(=O)C3CCC3)cc2OC[C@H]1C	4	-2.7	7

Three entries from above, sorted by molar mass, ascending:
structure	DUX4 inh	DUX4 inh control	DUX4 inh difference
C/C=C/c1ccc([C@@H]2[C@@H](CO)N(C(C)=O)[C@H]2CNC(=O)c2ccccc2)cc1	3	1.0	2
CC(C)(O)C#Cc1ccc([C@@H]2[C@H](CO)N3CCCCN(C(=O)c4ccc(F)cc4)C[C@@H]23)cc1	11	16	-5
C[C@H](CO)N1C[C@H](C)[C@H](CN(C)Cc2ccc(C(=O)O)cc2)OCc2ccccc2-c2c(n(C)c3ccccc23)C1=O	8	1.4	6

Grouped by structure: the compounds so far containing an aryl methoxy group.
structure	DUX4 inh	DUX4 inh control	DUX4 inh difference
COc1ccccc1NC(=O)N[C@H]1C=C[C@@H](CC(=O)N[C@H](C)c2ccccc2)O[C@H]1CO	6	-2.5	8
CNC(=O)C[C@H]1CC[C@H]2[C@H](COc3ccc(NC(=O)c4ccccc4OC)cc3C(=O)N2C)O1	0	-2.0	2
COc1ccc2c3c(n(C)c2c1)[C@@H](CO)N(C)CC31CCN(C(=O)c2ccc3c(c2)OCO3)CC1	3	13	-11
COc1ccc(-c2ccc3c(c2)[C@@H]2[C@@H](CCN2C(=O)Nc2ccccc2OC)[C@@H](CO)N3C)cc1	?	.	.
COc1ccc2c3c([nH]c2c1)[C@@H](CO)N(Cc1cc(F)ccc1F)CC31CCN(C(C)=O)CC1	?	.	.
COc1ccc(S(=O)(=O)N(C)C[C@H]2OCCCC[C@H](C)Oc3ccc(NC(=O)Nc4cccc5ccccc45)cc3C(=O)N([C@H](C)CO)C[C@@H]2C)cc1	-3	4.7	-8
COc1ccc2c3c(n(C)c2c1)[C@H](CO)N(C(C)=O)CC31CCN(C(=O)c2cnccn2)CC1	14	8.9	6
COc1cccc(-c2ccc([C@H]3[C@@H](CO)N4C(=O)CN(C(=O)C5CCOCC5)C[C@@H]34)cc2)c1	6	12	-6
COc1ccc(-c2cnc3c(c2)C(=O)N([C@H](C)CO)C[C@@H](C)[C@@H](CN(C)C(=O)C2CCC2)O3)cc1	-5	0.6	-5
COc1cccc(S(=O)(=O)N[C@H]2CC[C@@H](CC(=O)NC3Cc4ccccc4C3)O[C@H]2CO)c1	-2	-1.2	-1

The list continues.
structure	DUX4 inh	DUX4 inh control	DUX4 inh difference
CCCC#Cc1ccc([C@H]2[C@@H](CO)N(S(=O)(=O)c3cccc(F)c3)[C@H]2C#N)cc1	3	0.8	2
COc1ccc(NC(=O)N2CC(=O)N3[C@@H](CO)[C@H](c4ccc(C5=CCCC5)cc4)[C@@H]3C2)cc1	-2	-4.9	3
O=C(Cc1cccnc1)N[C@H]1CC[C@H](CCNS(=O)(=O)c2ccccc2Cl)O[C@@H]1CO	2	0.3	2
N#C[C@H]1[C@H](c2ccc(-c3cncnc3)cc2)[C@@H](CO)N1C(=O)Cc1ccccc1	3	1.4	2
C[C@H](CO)N1C[C@H](C)[C@@H](CN(C)CC2CCCCC2)OCc2ccccc2-c2c(n(C)c3ccccc23)C1=O	?	.	.
COc1ccccc1S(=O)(=O)N(C)C[C@H]1OCc2ccccc2-c2ccccc2C(=O)N([C@@H](C)CO)C[C@@H]1C	8	8.9	-1
CC=Cc1ccc2n(c1=O)C[C@H]1[C@H](CO)[C@@H](C(=O)NCCCN(C)C)N(Cc3cocn3)[C@@H]21 (mixture of isomers)	11	3.7	7
CN(C)C(=O)C[C@@H]1CC[C@H]2[C@@H](COC[C@H](O)CN2Cc2nccs2)O1	8	4.8	3
COc1ccc2c3c([nH]c2c1)[C@@H](CO)NCC31CCN(S(=O)(=O)c2cccs2)CC1	0	-7.9	8
CCCNC(=O)N1CC2(C1)[C@@H](c1ccccc1)[C@@H](CO)N2C(=O)c1cccnc1	5	5.4	-1
COc1ccccc1-c1ccc([C@H]2[C@@H](CO)N(C(=O)C3CCC3)[C@H]2C#N)cc1	2	2.3	0
CN1c2ccc(Br)cc2[C@@H]2[C@@H](CCN2C(=O)CN2CCOCC2)[C@H]1CO	?	.	.
COCC(=O)Nc1ccc2c(c1)OC[C@H](C)N(Cc1ccncc1)C[C@H](C)[C@H](OC)CN(C)C2=O	1	4.6	-4
O=C(Nc1ccc2c(c1)[C@@H]1C[C@H](CC(=O)N3CCc4ccccc4C3)O[C@H](CO)[C@@H]1O2)C1CCOCC1	4	4.7	0
CN1C(=O)c2cc(NC(=O)c3ccc(Cl)cc3)ccc2OC[C@@H]2O[C@H](CC(=O)NCc3cccc(F)c3)CC[C@@H]21	-1	3.9	-5

These rows are one share of the data (hit frequency here may not be typical).
